High-throughput results from PubChem BioAssay.
rRNA inh HTS: inhibits bacterial ribosomal RNA function over humanized ribosomes. E. coli WT GFP vs humanized-ribosome RFP mutants, fluorescence, 24 h; active compounds read low; DMSO median 0, no signal -100. GFP signal change (wild-type ribosome), % (test concentration not listed). 350,000 tested, 1.6% active;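 active = significant combined selectivity score with lowered wild-type GFP, culture density cut under 30%, mutant RFP and density less affected; inactive = any of these conditions unmet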; also: one replicate is shown; some compounds called inactive have numbers as strong as hits
ALR H2O2 inh: blocks human ALR sulfhydryl oxidase activity | P55789 | purified ALR, DTT oxidation, H2O2 HRP-luminol luminescence | inhibition, % (no concentration beside the values) | 290,000 tested, 3.8% active;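 active = mean and each replicate at 75% or more; inconclusive = only one of the two met; inactive = neither met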;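 also: stock transfer was 7.5 nL into about 7.5 µL; 0% = neutral wells and 100% = wells with inactivated enzyme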
Target sequence (P55789 whole entry, looked up): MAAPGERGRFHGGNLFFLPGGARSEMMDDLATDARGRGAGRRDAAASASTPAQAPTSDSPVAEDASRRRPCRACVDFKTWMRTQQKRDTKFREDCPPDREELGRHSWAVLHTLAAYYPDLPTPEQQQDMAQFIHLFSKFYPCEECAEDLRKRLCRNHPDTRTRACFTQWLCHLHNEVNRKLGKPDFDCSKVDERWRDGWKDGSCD
AF4-AF9 inh: blocks AF4 peptide binding to human AF9. AlphaScreen, biotin-AF4 peptide binding to FLAG-AF9. AID 651704. 350,000 tested, 0.47% active. inhibition, % at 10 µM. P42568;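 active = every replicate reaching a set inhibition limit, whatever the replicate mean, cut at about 25% in these data; inconclusive = mean inhibition reaches that limit but some replicates miss it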;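 also: 0% = plate neutral control median and 100% = total signal loss; the record names both 10 and 1 µM as test concentration; the first replicate is given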
Target sequence (P42568 whole entry, looked up): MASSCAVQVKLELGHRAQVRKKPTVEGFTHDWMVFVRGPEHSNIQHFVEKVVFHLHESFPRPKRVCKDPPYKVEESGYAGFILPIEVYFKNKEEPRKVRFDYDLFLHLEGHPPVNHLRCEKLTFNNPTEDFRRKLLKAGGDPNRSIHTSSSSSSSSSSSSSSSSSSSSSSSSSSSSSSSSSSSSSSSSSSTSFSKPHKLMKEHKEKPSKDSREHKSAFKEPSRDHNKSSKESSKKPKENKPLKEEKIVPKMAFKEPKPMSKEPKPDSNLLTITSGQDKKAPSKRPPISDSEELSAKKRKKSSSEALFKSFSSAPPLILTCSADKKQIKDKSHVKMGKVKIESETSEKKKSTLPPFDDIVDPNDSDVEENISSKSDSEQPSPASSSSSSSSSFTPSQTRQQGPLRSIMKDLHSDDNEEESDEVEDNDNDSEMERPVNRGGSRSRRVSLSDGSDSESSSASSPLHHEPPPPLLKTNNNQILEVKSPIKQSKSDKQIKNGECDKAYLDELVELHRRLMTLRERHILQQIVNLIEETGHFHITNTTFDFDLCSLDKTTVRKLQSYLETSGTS
HNF4A DNA FP: change in binding of human HNF4 alpha to DNA; P41235; AID 1224865; activity change, % at 10 µM; 360,000 tested, 0.3% active; HNF4a-FITC DNA binding, fluorescence polarization, 1 h; in the data active = activity change above about 30%, passing the limit was not always enough;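 also: controls were the assay level and a saturating level of protein; the project sought stronger binding though the title names inhibitors; some compounds called inactive have numbers as strong as hits; positive values seem to mean higher polarization but the record does not say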
FGF22 binding: binders of recombinant human FGF22 by thermal shift | AID 651658 | calls only at 9.99 µM | Q9HCT0 | SYPRO orange fluorescence; percent of sucrose octasulfate shift, DMSO zero | 340,000 tested, 1.5% active;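 active = melting point raised past a set limit in the mean and every replicate; inconclusive = no clear call; three in four hits are not shown here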
Target sequence (Q9HCT0 whole entry, looked up): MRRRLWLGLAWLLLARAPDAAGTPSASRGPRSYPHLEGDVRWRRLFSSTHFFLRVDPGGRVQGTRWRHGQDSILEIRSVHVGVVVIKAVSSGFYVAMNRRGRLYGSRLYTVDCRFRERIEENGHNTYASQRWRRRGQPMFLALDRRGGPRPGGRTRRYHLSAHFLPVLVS
Vif A3G: HIV-1 Vif–A3G interaction blockers – biochemical, TR-FRET, GST-Vif 1-94, biotin-A3G peptide, dose response retest, primary screen (AID 1117319) | inhibition, %; hits with a dose series show IC50 in µM | 260,000 tested, 0.57% active | TR-FRET GST-Vif / biotin-A3G peptide binding; higher % means a stronger effect; test concentration not given here; strong numbers were not always called active;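 active = above the screen mean plus three standard deviations and confirmed in dose response; inconclusive = results disagree or hit not tested in dose response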;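 also: Vif residues 1-94 fused to GST binding biotinylated APOBEC3G peptide 110-148; 0% = full assay without inhibitor and 100% = GST in place of GST-Vif; retest series ran down from 100 µM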
E coli growth: inhibitors of Escherichia coli growth | OD600 absorbance (concentration not given with the values) | 330,000 tested, 0.21% active | OD600, 23 h; active compounds read low;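 active = OD600 absorbance below the run mean of sample wells minus 3.6 SD, in any replicate, cut at about 0.56 in these data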;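 also: stock transfer was 300 nL into about 60 µL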
rRNA inh HTS OD600: recorded beside rRNA inh HTS, whose call it bears; OD600 change, %; measured here: OD600 growth;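 optical density of the mix in the first replicate; 0 = DMSO median and -100 = no signal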
rRNA inh HTS RFP: second read-out of rRNA inh HTS, no call of its own (marks repeat the call); RFP signal change, %; measured here: RFP humanized mutant strains;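 first replicate; 0 = DMSO median and -100 = no signal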
Active calls of the source: *; i = inactive; ? = inconclusive; · = not tested or not shown. These rows are one share of the data. The share of hits here may be higher or lower than overall.

SMILES | rRNA inh HTS | rRNA inh HTS OD600 | rRNA inh HTS RFP | ALR H2O2 inh | AF4-AF9 inh | HNF4A DNA FP | FGF22 binding | Vif A3G | E coli growth
N#C[C@H]1[C@@H](c2ccc(-c3ccccc3)cc2)[C@@H](CO)N1C(=O)Cc1ccccc1 | -2 | -17 | 2.4 | · | -2.9 | · | i | · | ·
C/C=C/c1cccc(-c2nc(C(=O)NCc3ccc(OC)cc3)cc3c2[C@@H](CCO)N([S@](=O)C(C)(C)C)C3)c1 | 0 | 14 | 10 | · | 1.0 | · | i | · | ·
CCOC(=O)Cc1csc(NC(=S)NC(=O)CC(C)C)n1 | 1 | 5 | 3.3 | -7 | -1.4 | -0.4 | i | · | 0.74
Cc1c(C(=O)/C=C/N(C)C)nnn1-c1ccc(Cl)cc1Cl | -8 | -6 | 1.9 | 9 | -1.1 | 3.2 | i | · | 0.63
Cc1cc(C)c(S(=O)(=O)n2c([N+](=O)[O-])cnc2C)c(C)c1 | 13 | 10 | -1.3 | 27 | -6.7 | -0.4 | i | ? | 0.66
Cc1nn(-c2ccc(F)cc2)c(C)c1CN1CCN(CCc2ccccc2)C(CCO)C1 (centres undefined) | 6 | -2 | 12 | 11 | -6.4 | -2.6 | i | -3% | 0.68
C=C1CC(C(=O)N/N=C/c2ccc(O)cc2)C1 | · | · | · | 100* | · | 0.4 | · | 2% | ·
COc1ccc(NC(=O)CCOc2ccc(C)cc2)cc1S(=O)(=O)N1CCCCC1 | -8 | -13 | -0.1 | 0 | 0.3 | -2.3 | i | -5% | 0.66
CSc1ccc(S(=O)(=O)Nc2ccc(N3CCOCC3)c(Cl)c2)cc1 | -37 | -59 | 15 | -3 | -34 | 1.0 | i | -1% | 0.67
CC(C)C(NC(=O)c1c(F)cccc1F)C(=O)NCC(c1ccccc1)N(C)C (centres undefined) | 8 | 10 | 5.8 | -3 | -1.6 | 1.9 | i | · | 0.69
COC(=O)c1ccc2c(c1)N(C)S(=O)(=O)c1cnc(SCC(=O)C(C)(C)C)nc1-2 | 1 | 5 | 0.1 | -4 | 0.9 | 1.9 | i | · | 0.66
COc1cccc(C(=O)Nc2ccc3c(c2)C(=O)N(C)C[C@@H](OC)[C@H](C)CN[C@@H](C)CO3)c1 | 1 | -5 | -1.9 | · | 0.0 | · | i | · | ·
CCOC(=O)C1(Cc2cccc(OC)c2)CCN(Cc2cccc(O)c2)CC1 | -7 | -10 | -2.1 | 5 | -9.2 | 1.5 | i | 7% | ·
CCCCn1c(Cn2nc(C(=O)O)c3ccccc3c2=O)nc2cc(S(N)(=O)=O)ccc21 | 3 | 7 | 2.1 | -1 | -5.1 | 2.1 | i | · | 0.66
CN1C(=O)c2cc(NC(=O)C3CCOCC3)ccc2OC[C@@H]2O[C@@H](CC(=O)NCc3ccc4c(c3)OCO4)CC[C@H]21 | 9 | 15 | -2.5 | · | -4.4 | · | i | · | ·
O=C(NCC[C@H]1CC[C@H](NC(=O)C2CCC2)[C@H](CO)O1)c1cc(Cl)cc(Cl)c1 | -4 | -7 | -0.3 | · | -2.4 | · | i | · | ·
COC(=O)C[C@@H]1C=C[C@@H](NS(=O)(=O)c2ccccc2F)[C@@H](CO)O1 | -1 | 10 | -2.7 | · | -0.4 | · | i | · | ·
CCOc1ncccc1C(=O)OCc1ccc(Cl)cc1 | · | · | · | 2 | · | -1.8 | · | 11% | 0.68
Cc1ccc(NC2=C(Cl)C(=O)OC2OC(=O)c2ccccc2C)cc1 (centres undefined) | -51 | -71 | -12 | · | -2.6 | -0.3 | i | -2% | 0.7
Cc1ccc(S(=O)(=O)N[C@@H]2C=C[C@@H](CC(=O)NCc3ccc(Cl)c(Cl)c3)O[C@H]2CO)cc1 | -34 | -59 | -4.9 | · | -1.8 | · | i | · | ·

Single records (already shown). Values in the order: rRNA inh HTS | rRNA inh HTS OD600 | rRNA inh HTS RFP | ALR H2O2 inh | AF4-AF9 inh | HNF4A DNA FP | FGF22 binding | Vif A3G | E coli growth
CCOC(=O)C1(Cc2cccc(OC)c2)CCN(Cc2cccc(O)c2)CC1 is listed as -7 | -10 | -2.1 | 5 | -9.2 | 1.5 | i | 7% | ·
COc1cccc(C(=O)Nc2ccc3c(c2)C(=O)N(C)C[C@@H](OC)[C@H](C)CN[C@@H](C)CO3)c1 is listed as 1 | -5 | -1.9 | · | 0.0 | · | i | · | ·
O=C(NCC[C@H]1CC[C@H](NC(=O)C2CCC2)[C@H](CO)O1)c1cc(Cl)cc(Cl)c1 is listed as -4 | -7 | -0.3 | · | -2.4 | · | i | · | ·

(list continues)
SMILES | rRNA inh HTS | rRNA inh HTS OD600 | rRNA inh HTS RFP | ALR H2O2 inh | AF4-AF9 inh | HNF4A DNA FP | FGF22 binding | Vif A3G | E coli growth
COCC(=O)Nc1ccc2c(c1)C(=O)N(C)C[C@@H](OC)[C@H](C)CN(CC1CCCCC1)[C@@H](C)CO2 | -2 | -12 | 3.3 | · | 4.2 | · | i | · | ·
COC(=O)[C@H]1[C@H](CO)[C@H]2Cn3c(ccc(C4=CCCC4)c3=O)[C@H]2N1Cc1cncnc1 | 3 | 0 | 2.4 | · | 0.0 | · | i | · | ·
O=C(Nc1ccc([N+](=O)[O-])cc1NC(=O)c1ccccc1)c1ccccc1 | 12 | 8 | 0.9 | · | 5.4 | 1.8 | i | -2% | 0.68
O=C(NC1=NCCS1)c1cccc(F)c1 | 13 | 14 | 1.2 | -7 | -5.6 | 1.6 | i | · | 0.61
COc1ccc2c3c(n(C)c2c1)[C@H](CO)N(C(=O)NC(C)C)CC31CCN(CC2CCCCC2)CC1 | 4 | 1 | -4.5 | · | 0.3 | · | i | · | ·
O=C(CNC(=O)c1sc2ccccc2c1Cl)NCc1cccnc1 | 3 | -12 | -2.6 | -5 | 0.2 | 0.2 | i | · | 0.67
Cc1noc(C)c1S(=O)(=O)Nc1ccc2c(c1)C(=O)N([C@H](C)CO)C[C@@H](C)[C@@H](CN(C)Cc1ccccc1)OCCCC[C@@H](C)O2 | 0 | -4 | 0.8 | · | 6.5 | · | i | · | ·
COc1ccc(C(=O)Nc2ccc3c(c2)OCCO3)cc1[N+](=O)[O-] | 8 | 22 | -3.5 | -1 | -0.4 | -0.1 | i | · | 0.71
COc1ccc(C(=O)COC(=O)CCNS(=O)(=O)c2ccc(NC(C)=O)cc2)c(OC)c1 | 0 | 0 | 0.1 | 0 | -0.5 | 1.9 | i | 5% | 0.67
C[C@@H]1CN([C@@H](C)CO)C(=O)c2cc(NC(=O)C3CCCCC3)ccc2O[C@@H](C)CCCCO[C@H]1CN(C)C(=O)C1CCCCC1 | 1 | -3 | 0.2 | · | -0.7 | · | i | · | ·
CCn1c(=O)c2ccccc2n(Cc2ccc([N+](=O)[O-])cc2)c1=O | -3 | 2 | -1.4 | · | 0.5 | 1.0 | i | -1% | 0.67
CC(Sc1nccn1C)C(=O)Nc1ccccc1 (centres undefined) | 4 | 5 | 2.0 | -3 | -2.4 | 1.0 | i | · | 0.7
CN(C)c1ccc(/C=C2\NC(=S)N(Cc3ccccc3)C2=O)cc1 | · | · | · | -1 | · | 128 | · | ? | 0.74
O=C(O)c1ccc(N2CCN(C(c3ccccc3)c3ccccc3)CC2)c([N+](=O)[O-])c1 | -1 | -3 | -2.6 | · | 2.5 | -1.5 | i | 3% | 0.63
O=C(CCc1ccc(S(=O)(=O)N2CCOCC2)cc1)Nc1ccc2c(c1)OCCO2 | -5 | -6 | -5.7 | -13 | 0.7 | 2.3 | i | -5% | 0.68
O=C(C[C@@H]1C[C@@H]2c3cc(NC(=O)C4CCC4)ccc3O[C@@H]2[C@@H](CO)O1)NCC1CC1 | 2 | 5 | -2.9 | · | -1.4 | · | i | · | ·
CCCc1nc(SCC(=O)NC2CC2)c2c(C)c(C)sc2n1 | -8 | -8 | 0.9 | -1 | 2.4 | 1.9 | i | -7% | 0.67
COc1ccc(NC(=O)CN(C)C(=O)CSCc2c(C)noc2C)cc1 | 2 | 2 | 1.4 | 6 | -1.6 | 0.5 | i | 8% | 0.67
CCOC(=O)c1[nH]c2ccc(OC)cc2c1C | · | · | · | -3 | · | -3.8 | · | 0% | 0.7
COc1cccc(NC(=O)c2ccc(-n3cccn3)nc2)c1 | · | · | · | -4 | · | 0.2 | · | ? | 0.68
O=C(NC1Cc2ccccc2C1)[C@@H]1[C@@H](CO)[C@@H]2Cn3c(ccc(-c4ccccc4F)c3=O)[C@H]1N2 | 0 | -3 | 0.5 | · | 0.4 | · | i | · | ·
COc1cc2c(cc1NC(=O)c1cccc(F)c1)CCCC2 | · | · | · | 8 | · | 0.6 | · | 1% | 0.7
CC(C)N(C(=O)[C@H]1C[C@H](CC(=O)NCCN2CCOCC2)C(=O)N2CCc3c([nH]c4ccc(Cl)cc34)[C@]12C)C(C)C | 0 | -8 | 5.4 | · | -1.1 | 1.6 | i | -2% | 0.7
COc1cccc(S(=O)(=O)N[C@@H]2CC[C@@H](CC(=O)NCc3ccc(Cl)cc3)O[C@@H]2CO)c1 | -5 | -11 | 1.4 | · | -0.3 | · | i | · | ·
CCC(Sc1nnc(C)s1)C(=O)Nc1nccs1 (centres undefined) | · | · | · | -7 | · | 3.4 | · | -2% | 0.73
COc1ccccc1CNC(=O)C(=O)NCC1CCCN1S(=O)(=O)c1cccs1 (centres undefined) | -6 | -7 | 1.1 | -15 | -0.2 | 2.4 | i | 0% | 0.63
COc1cccc(OCc2cc(C(=O)N3CCCC3c3ccccn3)no2)c1 (centres undefined) | -2 | -8 | 1.5 | -7 | -11 | 0.6 | i | · | 0.71
COc1ccccc1-c1c(C)oc2cc(OC(=O)c3ccco3)ccc2c1=O | · | · | · | 12 | · | 4.5 | · | 9% | 0.72
CCc1cccc(NC(=O)c2sc3nc4n(c(=O)c3c2C)CCC4)c1 | -11 | -15 | 1.7 | 3 | 1.6 | -1.7 | i | 7% | 0.64
O=C1CC(c2ccco2)CC(O)=C1C=Nc1ccccc1-c1ccccc1 (centres undefined) | 12 | 15 | 6.8 | 6 | 4.3 | 6.6 | i | 18% | 0.67
Cc1ccccc1-c1cnc2c(c1)C(=O)N([C@@H](C)CO)C[C@@H](C)[C@H](CN(C)C(=O)CN(C)C)O2 | 11 | 18 | 0.3 | · | -1.3 | · | i | · | ·
Cc1ccccc1OCC(=O)OCC(=O)NCc1ccccc1 | 1 | 0 | 0.0 | 2 | -1.6 | 4.9 | i | 7% | ·
CC(C)(C)c1ccc(C(=O)NCC(=O)OCC(=O)Nc2nc(-c3ccc(F)cc3)cs2)cc1 | 7 | -3 | 0.0 | -5 | -6.8 | 2.0 | i | -5% | 0.67
O=C(Cc1noc2ccccc12)Nc1ccccn1 | · | · | · | -5 | · | 2.4 | · | -7% | ·
CC(=O)Nc1c([N+](=O)[O-])cc2[nH]c(=O)[nH]c2c1[N+](=O)[O-] | 11 | -2 | 3.1 | -21 | -23 | -1.2 | i | 21% | ·
O=C(O)/C=C/C(=O)NNC(=O)c1ccccc1Br | · | · | · | 30 | 6.6 | -1.4 | i | 2% | 0.73
O=C(Nc1cnc2ccccc2c1)c1cccc(-n2cnnn2)c1 | · | · | · | -7 | · | 1.9 | · | 22% | 0.73
O=C(COc1ccc2c(c1)OCO2)Nc1nccs1 | · | · | · | · | 2.8 | 5.2 | i | · | 0.67
CC1CCCCC1NC(=O)COc1ccccc1C#N (centres undefined) | 1 | -7 | -2.5 | -2 | -3.6 | 4.8 | i | · | 0.68
O=C(Cn1cc(COc2c(F)c(F)cc(F)c2F)nn1)c1ccc(O)cc1 | -18* | 0.1* | 4.3* | · | -0.3 | 0.0 | i | · | ·
